# Screening results: PubChem BioAssay, several laboratories
# Rce1 inhib = inhibitors of yeast Ras-converting enzyme | calls only | actives 0.27% (n = 290,000) | AID 2563 | yeast membranes, quenched prenylated peptide cleavage fluorescence | Q03530;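 active = fall in fluorescence gain of 50% or more versus controls, with final raw signal at or below 3038400; inconclusive = same 50% fall but final raw signal above 3038400; inactive = fall in fluorescence gain under 50%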;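 also: plate controls were neutral control wells for no effect and wells lacking membranes for full effect; tested at 10 µM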
# eIF4H inh = inhibitors of RNA binding by human eIF4H. actives 0.94% (n = 290,000). eIF4H fluorescence polarization binding assay. Q15056. AID 2012. inhibition, % at 35 µM;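 active = 50% or more with normal probe brightness, or confirmed in later tests; inconclusive = above 50% with abnormal brightness, or retests that disagree; inactive = below 50% or failed in later tests; about a fifth of its hits are not listed in these tables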;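 also: calls also rest on retests at 20 µM and on dose response follow-up; 0% = protein and probe with vehicle and 100% = probe without protein; strong numbers were not always called active; many hits fall short of the cut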
# CSC inhib = cancer stem cell inhibition; cancer stem cell-like cells viability, luminescence; actives 1.1% (n = 300,000); inhibition, % at 7.5 µM;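 active = mean at 75% or more and at least half the replicates too; inconclusive = mean and replicates disagree; tested in HMLE shEcad cells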;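 also: 0% = median of negative and 100% = median of positive control wells; the first replicate is given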
# UUG fidelity = yeast start codon fidelity modulation | S. cerevisiae UUG-firefly luciferase reporter, luminescence/redox ratio | activity score, % at 18.7 µM | actives 0.13% (n = 350,000) | AID 602363;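 active = replicate mean at a twofold rise or more, about +100% in these data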;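 also: firefly luciferase made from a UUG start codon reports start codon fidelity; reporter light over untreated wells divided by growth signal over untreated wells; some hits fall short of that in this replicate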
# MT1-MMP act inh = blocks activation of human MT1-MMP; P50281; GFP/RFP ratio change, % at 20 µM; AID 651647; HT1080 RFP-PRO-GFP cells, GFP/RFP ratio fluorescence, overnight; percent of plate control window, DMSO zero; actives 0.061% (n = 360,000);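 active = GFP/RFP ratio change of at least 30% with cell ATP level not reduced by more than half and red fluorescence within 50% of control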; also: strong numbers were not always called active
#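 Assay system: HT1080 RFP-PRO-GFP cells. Benchmarks: DMSO vehicle wells and RFP-L50D-GFP reporter cell wells. Times: overnight cell settling, then overnight compound exposure, 37 °C, 5% CO2. Compound: 20 µM single dose, 1% DMSO. Read-out basis: GFP/RFP fluorescence ratio.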
# PABP polyA inh = blocks human PABP binding to poly(A) RNA; actives 1% (n = 290,000); P11940; AID 2014; inhibition, % at 35 µM; fluorescence polarization;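 active = 50% or more with normal probe brightness, or confirmed in later tests; inconclusive = above 50% with abnormal brightness, or retests that disagree; inactive = below 50% or failed in later tests; about a fifth of its hits are not listed in these tables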;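 also: calls also rest on retests at 20 µM and on dose response follow-up; controls were probe without protein and protein plus probe with vehicle; some compounds called inactive have numbers as strong as hits; many hits fall short of the cut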
# Target sequence (P11940 whole entry, looked up): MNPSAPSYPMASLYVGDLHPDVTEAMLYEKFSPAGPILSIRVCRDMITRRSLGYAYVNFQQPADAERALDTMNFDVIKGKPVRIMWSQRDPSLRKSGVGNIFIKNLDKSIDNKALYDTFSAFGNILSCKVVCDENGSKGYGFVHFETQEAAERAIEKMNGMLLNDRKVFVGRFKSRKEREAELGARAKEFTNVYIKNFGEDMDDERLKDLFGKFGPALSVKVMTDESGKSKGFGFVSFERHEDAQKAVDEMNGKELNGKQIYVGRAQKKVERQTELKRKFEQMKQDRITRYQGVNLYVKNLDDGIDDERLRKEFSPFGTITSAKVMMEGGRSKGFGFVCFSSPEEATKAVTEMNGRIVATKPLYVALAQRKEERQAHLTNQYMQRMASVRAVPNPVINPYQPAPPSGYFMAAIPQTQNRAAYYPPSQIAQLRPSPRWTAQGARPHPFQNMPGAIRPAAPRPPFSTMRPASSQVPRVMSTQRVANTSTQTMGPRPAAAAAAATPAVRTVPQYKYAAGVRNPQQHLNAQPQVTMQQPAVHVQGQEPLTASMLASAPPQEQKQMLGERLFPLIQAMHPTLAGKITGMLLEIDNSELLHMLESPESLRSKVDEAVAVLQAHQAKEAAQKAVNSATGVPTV
# HIV Env fusion = HIV envelope-mediated fusion inhibition. HeLa-JRFL Env/CEM21 cell fusion, luciferase. actives 1.1% (n = 360,000). inhibition, % at 12.3 µM;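 active = mean replicate inhibition score of at least 50 and every replicate individually at or above 50; inconclusive = only one of the two criteria met; inactive = mean below 50 and not all replicates reaching 50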;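 also: 0% = plate neutral controls and 100% = maraviroc near 300 nM; one replicate is shown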
# eIF4H inh retest = also measured in eIF4H inh; calls as there; inhibition, %; compound at 20 µM; confirmation average;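 mean of two retest wells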
# PABP polyA inh retest = second read-out of PABP polyA inh, no call of its own (marks repeat the call); inhibition, %; compound at 20 µM; confirmation repeats;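 mean of two retest wells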
# MT1-MMP act inh RFP = recorded beside MT1-MMP act inh, whose call it bears; RFP signal change, %; measured here: RFP expression control read;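 0 = vehicle wells; hits needed this value within 50% of zero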
# The depositor's hits bear a star; i = inactive; ? = inconclusive; . = not tested or not shown.
SMILES,Rce1 inhib,eIF4H inh,CSC inhib,UUG fidelity,MT1-MMP act inh,MT1-MMP act inh RFP,PABP polyA inh,HIV Env fusion,others
C/C(=N/NC(=O)CNS(=O)(=O)c1ccc(C)cc1)c1cccc([N+](=O)[O-])c1,.,-5.3,-4.4,-8.8,-1.5,-3.0,9.1,-72.6,
CCOC(=O)c1sc2nc(SCC#N)n(CCCN3CCCC3=O)c(=O)c2c1C,i,-3.4,.,6.1,-15.2,-16.1,1.0,-70.6,
Cc1ccccc1-c1cc(C(=O)N2CCCC2)c2ccccc2n1,i,40.4,3.4,7.3,-2.8,-4.0,16.0,-10.4,
Cc1ccc2nc(-c3ccc4c(c3)OCCO4)cc(C(=O)O)c2c1,i,-5.4,-2.3,-11.4,0.8,4.7,-2.6,.,
COc1ccc(Cl)cc1N(CC(=O)NC(C(C)C)C(C)C)S(C)(=O)=O,i,-8.4,-14.3,-1.5,0.8,0.9,-4.6,-103.3,
OCC[C@H]1C[C@H](O)[C@@H](O)[C@]2(OCCc3ccccc32)O1,.,.,-13.2,0.3,0.8,1.5,.,-46.4,
CCSc1n[nH]c(=O)[nH]c1=O,i,4.5,-13.3,-17.4,6.5,-2.7,-2.2,-29.1,
O=C(CSc1ccc([N+](=O)[O-])cn1)Nc1ccc(N2CCOCC2)c(Cl)c1,i,7.6,0.4,.,1.7,-3.7,1.7,-4.8,
O=C(Cc1ccccc1)Nc1nc(=O)c2ccccc2s1,i,0.0,-11.0,-7.9,2.6,3.1,-10.7,.,
CCCCn1c(=O)nc2n(-c3ccc(C)cc3)c3ccccc3cc-2c1=O,i,12.1,-6.7,5.4,3.4,0.4,-17.5,.,
O=[N+]([O-])c1cc([N+](=O)[O-])c(Oc2cccnc2Br)cc1NN1CCCCC1,i,3.2,32.9,-5.7,2.0,-4.5,2.8,40.5,
COc1ccc(NC(=O)NNC(=O)COc2cc(C)c(Cl)c(C)c2)c(OC)c1,i,-11.6,-6.8,-4.2,2.2,1.7,-1.2,3.4,
CCCS(=O)(=O)NC(=O)C1(C)CCCN(C(=O)c2c(-c3ccccc3)noc2C)C1 (stereo not given),.,.,.,-2.8,0.2,-4.1,.,-18.1,
Cc1noc(C)c1COc1ccc(C(=O)Nc2ncccc2O)cc1,i,.,2.2,.,8.9,4.3,.,-8.7,
O=c1nc(Nc2ccc(OCc3ccccc3)cc2)sc2ncccc12,i,-2.5,48.1,-18.6,1.4,7.7,24.3,-11.5,
CCOC(=O)C1(Cc2cccc(OC)c2)CCN(Cc2cccnc2)CC1,i,2.7,-0.5,.,-2.3,2.6,-0.5,4.3,
COc1ccc(Cl)cc1NC(=O)NNC(=O)C(=O)Nc1ccc(F)cc1,.,.,.,-1.0,-4.3,-0.6,.,-2.1,
COc1cc(OC)cc(C(=O)NNC(=O)CCOc2ccccc2OC)c1,.,.,.,-6.3,0.3,1.2,.,-11.2,
CCOC(=O)C(CC)Sc1ccc2nnc(CCNS(=O)(=O)c3ccccc3)n2n1 (stereo not given),i,-6.0,-1.8,.,-1.9,0.4,1.9,7.9,
CCOC(=O)c1cc2ccc3ccccc3c2s1,i,-5.0,-10.2,-16.9,-2.8,-1.9,-8.3,.,
O=C1C(=O)N(Cc2ccccc2)C(c2cccc(O)c2)/C1=C(\O)c1ccc2c(c1)OCCO2 (stereo not given),i,2.1,-6.5,-4.1,-5.0,-0.1,-6.0,-9.8,
COc1ccc(S(=O)(=O)Nc2ccc(N(C)C(C)=O)cc2)cc1,i,1.0,8.9,-19.5,-6.5,-2.0,6.1,-41.4,
COc1ccc(Oc2ccc(N/C=C/C(=O)C(C)(C)C)cc2)cc1,i,5.8,13.6,.,-2.9,-2.6,-4.8,5.2,
Cc1ccc(C(=O)c2c[nH]c3c(F)cc(F)cc3c2=O)cc1,i,-10.1,0.1,0.0,0.3,-0.7,-7.4,-13.6,
Cc1ccc(S(=O)(=O)N(C)C)cc1NC(=O)c1ccc2ccccc2n1,.,-1.2,-8.2,-18.9,0.3,-6.7,1.3,3.9,

# Next section:
SMILES,Rce1 inhib,eIF4H inh,CSC inhib,UUG fidelity,MT1-MMP act inh,MT1-MMP act inh RFP,PABP polyA inh,HIV Env fusion,others
C#CCNC(=O)C1=C[C@H](c2ccc(C(F)(F)F)cc2)C[C@H](OCc2ccc(CO)cc2)O1,i,2.0,-2.4,-15.2,6.3,1.7,-6.0,6.4,
Cc1ccc(CN2CCC(n3nccc3NC(=O)C3CCOC3)CC2)cc1C (stereo not given),i,1.0,-11.8,-13.2,-2.2,-1.2,12.9,2.8,
COc1cc(C(=O)Oc2ccc3ccc(O)cc3c2)cc(OC)c1OC,i,-2.5,-1.9,1.1,1.3,-8.2,-7.9,24.5,
COc1ccc(-c2cc(C(=O)N3CCN(c4ccccc4O)CC3)c3ccccc3n2)cc1OC,i,-14.0,14.7,-5.2,0.0,-1.8,-3.6,-2.1,
CCN1CCc2c(OCc3ccc(C(=O)OC)o3)cccc2C1=O,i,4.7,-8.3,.,0.3,-5.2,-8.0,-3.9,
CC/C(=C/c1ccccc1)c1cccc2[nH]c3c(OC)cccc3c12,i,-8.3,131.0*,-19.4,-6.1,0.9,-3.9,58.1*,
COc1ccc(NS(=O)(=O)c2ccc(N3CCCC3)c(N)c2)cc1,i,-4.3,-10.8,-23.9,-1.1,-23.9,-15.1,27.4,
CC(=O)Nc1ccc(NC(=O)CSc2nc3ccccc3nc2N2CCC(C)CC2)cc1,i,-1.9,-0.6,-13.2,-4.9,-3.1,0.5,6.6,
CCOC(=O)C1=C(CNC(C)(C)CC(C)(C)C)NC(=O)NC1c1cccc([N+](=O)[O-])c1 (stereo not given),i,2.2,19.8,.,2.1,-4.4,-4.0,-3.5,
CCOC(=O)C1CCCN(c2cc(=O)n(-c3ccccc3Cl)c(=O)[nH]2)C1 (stereo not given),i,6.3,-1.1,21.0,1.4,3.2,4.0,-13.4,
COCCn1c(C)cc(C2=NNC(=Nc3ccc(F)cc3)SC2)c1C,i,9.4,13.3,-3.7,-4.6,-1.0,-0.1,.,
CCOC(=O)C1=C(C)NC(=O)C(C(N)=O)C12CCCCC2 (stereo not given),i,12.0,-13.6,-17.9,1.3,3.9,0.9,-20.4,
Cc1noc(C)c1-c1csc(N2CCC(C(N)=O)CC2)n1,.,.,-19.0,28.4,4.3,-0.6,.,-69.0,
CCCC(=O)NC(C)c1nc2ccccc2n1C(C)C (stereo not given),i,6.7,-9.7,9.4,1.8,4.3,8.9,-34.6,
O=C(Nc1c(-c2ccccc2)nc2ccccn12)c1cccs1,i,3.4,-10.0,-18.2,0.1,4.0,-6.0,.,
Cc1cc(SCC(=O)N/N=C/c2ccc(O)c(O)c2O)c(C)cc1Br,i,92.6*,-18.7,-1.2,-19.5,-3.6,59.6*,?,
Cc1ccsc1/C=C/c1ccc2cccc(O)c2n1,i,33.2,92.1*,-41.7,5.2,-1.7,14.7,-97.4,
C[C@@H]1CN([C@H](C)CO)C(=O)CCCn2nncc2CO[C@@H]1CN(C)S(=O)(=O)c1cccs1,.,.,.,-0.6,-1.8,2.0,.,-2.7,
CN(C)c1ccc(/C=N/NC(=O)c2nnn(-c3nonc3N)c2CN(C)c2ccccc2)cc1,i,2.8,-1.6,-20.4,0.0,5.4,14.4,-4.2,
O=C1/C(=C/c2ccc(C(=O)O)cc2)CCC/C1=C\c1ccc(C(=O)O)cc1,i,75.5,-4.8,-16.9,0.9,0.8,-3.5,-8.9,eIF4H inh retest=16.2;PABP polyA inh retest=27.2
Cc1ccc(C(=O)N/C(=C/c2ccc(-c3ccc(Br)cc3)o2)C(=O)NC2CCS(=O)(=O)C2)cc1 (stereo not given),i,2.5,.,-2.8,1.9,1.7,-2.8,.,
CCOc1ccc(NC(=O)C(C)SC(N)=O)cc1 (stereo not given),i,-14.1,-6.6,-10.6,-8.0,6.0,3.6,.,
CCSCCOC(=O)C1=C(C)NC2=C(C(=O)CCC2)C1c1coc2ccccc2c1=O (stereo not given),i,-6.7,-22.0,-9.5,1.7,-2.8,-7.6,.,
COc1ccccc1-c1csc(C(C)(O)c2cccc(F)c2)n1 (stereo not given),.,.,.,-0.5,-2.6,-2.3,.,20.3,
Cc1nc2nc(-c3cccnc3)[nH]n2c(=O)c1C,i,-6.1,-6.1,.,6.9,5.1,4.4,.,

# Brought forward from above: 2 compounds; new compounds follow.
SMILES,Rce1 inhib,eIF4H inh,CSC inhib,UUG fidelity,MT1-MMP act inh,MT1-MMP act inh RFP,PABP polyA inh,HIV Env fusion,others
COc1ccccc1-c1csc(C(C)(O)c2cccc(F)c2)n1 (stereo not given),.,.,.,-0.5,-2.6,-2.3,.,20.3,
Cc1nc2nc(-c3cccnc3)[nH]n2c(=O)c1C,i,-6.1,-6.1,.,6.9,5.1,4.4,.,
Cc1cc(OCC(F)(F)C(F)(F)C(F)(F)C(F)(F)C(F)(F)C(F)F)nc(N)n1,i,-6.3,-17.5,-2.8,1.5,0.7,-6.9,17.6,
Cc1cc(C)c(-c2noc(C(=O)OC(C)(C)C)c2C(=O)OC(C)(C)C)c(C)c1,i,-6.3,-1.8,-8.8,-2.4,-5.2,-2.4,.,
Cc1cccc(OCC(=O)OC2CCN(C)CC2)c1,i,-0.9,-14.4,-15.6,2.4,3.1,1.5,.,
O=C(COC(=O)c1cccc(Br)c1)Nc1cccc2c1C(=O)c1ccccc1C2=O,i,19.2,24.2,.,0.5,1.8,13.1,-4.2,
NC(c1ccc(F)c(F)c1)c1nc(-c2ccc3ccccc3c2)cs1 (stereo not given),.,.,.,-8.7,-2.6,3.4,.,-61.9,
Cc1ccc(C(=O)CSc2nnc3c4ccccc4nc(Cc4ccccc4)n23)cc1,i,-7.0,61.6,3.0,0.9,-6.0,-1.0,-13.4,
C#CCCOC(=O)N1C2=NC(C(=O)OC)=C(C(=O)OC)[C@@H]3N(C)c4ccccc4[C@]23C[C@H]1C(=O)OC,i,-1.8,-2.3,-18.1,0.7,1.3,1.2,-55.0,
CCOc1ccc(C(=O)NN2CCOCC2)cc1,i,-1.9,-2.2,-14.8,1.7,4.1,5.0,-7.2,
CSCC[C@@H](CO)NC(=O)[C@H]1O[C@@H](n2ccc(N)nc2=O)[C@H](O)[C@@H]1O,.,.,.,-14.2,-1.3,1.1,.,-1.0,
C#CCO[C@@H]1C[C@H](n2ccc(NC(=O)c3ccccc3)nc2=O)O[C@@H]1CO,i,2.4,.,-12.4,1.6,4.7,-15.1,-15.7,
CC(NC=O)c1nc2ccccc2n1CCc1ccccc1 (stereo not given),i,-3.0,-1.4,-27.7,0.5,2.7,3.2,1.6,
c1ccc(Nc2ccccn2)nc1,i,-2.5,-14.9,-9.0,7.3,10.2,-8.6,11.0,
COC(=O)c1ccc(NC(=O)CSc2ccccc2)cc1,i,-16.4,-21.8,-22.0,3.6,4.7,-13.3,-22.4,
CCCCc1ccc(-c2ccc(Br)cc2)nc1,i,2.1,-3.9,-12.4,5.5,4.7,0.9,.,
CC1CC(C)CN(c2nc3c(c(=O)n(C)c(=O)n3C)n2CCSc2nc3ccccc3o2)C1 (stereo not given),.,.,.,8.1,-7.1,-5.3,.,0.7,
CC(=O)C[C@@H](O)CC(=O)[C@@H]1OC(=O)CC/C=C\Cc2ccccc21,.,.,15.2,-2.6,-9.9,2.3,.,-16.2,
O=C(c1ccc(N2CCOCC2)c([N+](=O)[O-])c1)N1CCN(Cc2ccccc2)CC1,i,-10.1,-13.4,-21.9,1.6,-2.3,-5.6,8.8,
COc1ccc(/C=C/C(=O)NCCSCc2ccco2)cc1OC,i,7.7,-9.9,.,0.1,3.8,-6.5,0.6,
